Vaccinia pol inh: inhibitors of vaccinia virus processive DNA synthesis (E9 polymerase); 0.94% of 46,000 active; normalized absorbance, % (test concentration not listed); in vitro processive DNA synthesis, absorbance read-out; hits give low values; some inactives read as strong as hits;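 active means replicate mean up to 90% and picked by the depositor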;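 further: 100% = median of the test wells of a plate; 100 nL library stock went into each well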
Starred values were filed as active, the others as inactive. A portion of the library, so the mix of outcomes need not match the whole.

SMILES | Vaccinia pol inh
O=c1[nH]c(SCCOc2ccccc2)nc2ccccc12 | 99.2
CCOc1ccc(NC(=O)c2cc3sccc3n2Cc2ccc(C)cc2)cc1 | 89.3
Cc1cc(C)c2cccc(N=CC3=C(O)CC(C)(C)CC3=O)c2n1 | 98.6
O=c1oc2ccc(Cl)cc2n1CN1CCCCC1 | 102.9
COc1ccc(-n2cnc3cc(N=Cc4nc5ccccc5n4C)ccc32)cc1 | 100.6
CC(=O)Oc1ccc(N(C(C)=O)S(=O)(=O)c2ccc3ccccc3c2)cc1 | 99.5
COc1cccc2sc(Nc3sc4c(c3C(N)=O)CCCC4)nc12 | 96.1
Cc1cc(NC(=O)CCC2CCCC2)nc2c1c(=O)oc1ccccc12 | 105.3
COc1cc2c(c(O)c1OC)CC(=O)CCC2 | 104.6
COC(=O)c1cn(C(=O)c2cc(Br)ccc2Cl)nc1N | 100.6
O=C(CC(c1ccccc1)c1ccccc1)Nc1ccccn1 | 97.3
COc1ccc(N2CCN(C(=O)CCS(=O)(=O)c3ccc4nc(C)sc4c3)CC2)cc1 | 110.4
CCOC(=O)CSc1nnc(Cn2nnc3ccccc32)n1-c1ccc(F)cc1 | 103.0
Cc1c(C(=O)NC(C)C)oc2ccc(S(=O)(=O)N3CCCC3)cc12 | 95.5
O=C(N/C(=C/c1ccccc1)P(=O)(O)c1ccccc1)c1ccccc1 | 98.3
COc1cccc(NCc2cccc3c2CN(CC2CCCO2)C3)c1 (stereo unspecified) | 96.2
O=C(CSc1oc(-c2cccs2)nc1S(=O)(=O)c1ccccc1)NC1CCCCC1 | 87.2
CCc1ccc2oc(-c3ccc(NC(=O)c4ccccc4)cc3)nc2c1 | 100.0
O=C(CCc1nc2cccnc2n1Cc1cccs1)N1CCc2ccccc21 | 108.7
CCN1CCC(N(Cc2ccc(F)cc2)C(=O)Nc2ccccc2Cl)CC1 | 103.9
COc1nonc1NC(C)=O | 99.8
CN(C)C(CNC(=O)c1ccco1)c1cccnc1 (stereo unspecified) | 101.0
O=C(Nc1ccccc1)Nc1cccc(C(F)(F)F)c1 | 100.3
COC(=O)c1ccccc1N=Cc1c(O)[nH]c(=S)[nH]c1=O | 100.0
CCOC(=O)N1CCC(c2nc(C)sc2C(=O)NCc2ccc(Cl)cc2)CC1 | 102.5
(more compounds)
SMILES | Vaccinia pol inh
O=c1cc(CSCc2ccc(Cl)cc2)[nH]c(=O)[nH]1 | 99.2
O=C(NCc1cccnc1)c1ccc(/C=C2\Sc3ccccc3N(Cc3ccccc3F)C2=O)cc1 | 104.2
O=C(COc1ncnc2ccccc12)N1CCCCC1 | 99.1
O=C1CC(/C=C/c2ccncc2)=Nc2ccccc2N1 | 106.1
COc1ccc(S(=O)(=O)Nc2nc(C(F)(F)F)cs2)cc1 | 101.0
CCCc1c(C(=O)OCC)[nH]c2c1C(=O)CC(C)(C)C2 | 98.0
COc1ccc(S(=O)(=O)Cc2ccccc2)cc1NC(C)=O | 89.8
O=C(Nc1ccc(-c2nc3cccnc3s2)cc1)c1ccccc1 | 90.7
CCc1ccc(NC(=O)COc2cnc3ccccc3n2)cc1 | 95.3
Cn1ccnc1SCC(=O)Nc1ccccc1Oc1ccccc1 | 100.1
CC(=O)Oc1ccc(C(=O)Nc2ccc(F)cc2F)cc1 | 97.6
CC(=O)NC(=S)Nc1nc2ccccc2n1C(C)=O | 99.9
Cc1cc(C)n(-c2ccc(C(=O)OCC(=O)Nc3c(Cl)cccc3Cl)cc2)n1 | 103.1
CCOC(=O)CN1C(=O)C2(C(C(=O)OCC)=C(N)OC3=C2C(=O)CC(C)(C)C3)c2ccccc21 (stereo unspecified) | 100.1
COc1cccc(C(=O)CC(C(=O)O)c2ccc(F)cc2)c1 (stereo unspecified) | 95.9
CN(C(=O)CSc1nncn2c1cc1sccc12)c1ccccc1 | 98.8
Cc1nc(NCc2ccco2)nc2c1C(=O)CC(C)C2 (stereo unspecified) | 100.5
Nc1nc2ccccc2n1Cc1ccc(Cl)c(Cl)c1 | 103.7
CCNc1nc(NCC)nc(C(=O)OCCO)n1 | 97.2
Cc1ccc(C(C)C)cc1OP1(=O)COc2ccccc2OC1 | 96.9
Cc1nc2sc3c(c2c2nnc(SCC(=O)c4ccccc4)n12)CCCC3 | 99.9
COC(=O)C1=C(C)NC(=O)/C1=C\c1cc(C)n(-c2ccc(OC)c(Cl)c2)c1C | 100.2
COc1ccc(-n2c(=S)[nH]c3cc(C(=O)NC4CCCC(C)C4C)ccc3c2=O)c(OC)c1 (stereo unspecified) | 98.7
Cc1cc(C)nc(NC(=NCc2ccc(Cl)cc2)NC(=O)C(C)N2C(=O)c3ccccc3C2=O)n1 (stereo unspecified) | 100.0
O=C(NC1CCN(Cc2ccccc2)CC1)[C@H](Cc1ccccc1)N1Cc2ccccc2C1=O | 96.2
Other structures follow.
SMILES | Vaccinia pol inh
CCCCn1cc(C2CC(=O)N(c3ccc(Br)cc3)C2=O)c2ccccc21 (stereo unspecified) | 84.6
CCc1ccccc1OCC(=O)O | 95.3
N#CCSc1nc2ccccc2c(=O)n1CCC(=O)NC1CCCCC1 | 101.7
O=C(N1CCOCC1)C12CC3CC(CC(C3)C1)C2 | 96.6
Cc1cc(SCCOc2ccc(Cl)cc2Cl)nc(N)n1 | 87.4
COC(=O)CCc1nc2c(ccc3ccccc32)s1 | 88.3
O=C1CC2(CCCC2)C(=O)N1c1ccc(S(=O)(=O)N2CCc3ccccc3C2)cc1Cl | 100.0
CCOc1cc(CNc2ccc(OC)cc2)ccc1OCC(=O)NC(C)(C)C | 100.1
CCN(CC)CCCCCCCOC(=O)c1cc(OC)c(OC)c(OC)c1 | 100.3
N#Cc1ccccc1Cn1c(=O)n(Cc2ccccc2)c(=O)c2ccccc21 | 100.7
CC(=O)Nc1ccc(NC(=O)C(C)OC(=O)C2CC2)cc1 (stereo unspecified) | 104.8
COC(=O)c1sc2nc3c(c(-c4ccc(Cl)cc4)c2c1N)CCC3 | 101.2
CCC(C(=O)O)N1C(=O)/C(=C/c2ccccc2)SC1=S (stereo unspecified) | 88.7
O=C(c1cc2c(s1)CCC2)N1CCc2ccccc21 | 103.9
CCC(=O)NCCSc1c[nH]c2ccccc12 | 103.3
Cc1nc2ccccc2n1C1CC(=O)N(c2ccccc2)C1=O (stereo unspecified) | 89.0
O=C(Nc1ccccc1C(F)(F)F)C1c2ccccc2Oc2ccccc21 | 95.1
Cc1cc(C)c2c(c1C(=O)Nc1cccc(C(F)(F)F)c1)CC(C)(C)C2=O | 106.5
O=C1NC(C2CC=CCC2)Nc2ccccc21 (stereo unspecified) | 97.5
COc1ccc(CCN2C(=S)NC3CC2(C)Oc2c(OC)cc(Br)cc23)cc1OC (stereo unspecified) | 102.3
O=C(CN1C(=O)CSc2cc(S(=O)(=O)N3CCCC3)ccc21)NCc1ccccc1 | 99.3
O=C(Nc1ccccc1)Nc1ccc(Cl)c(Cl)c1 | 101.1
COC(=O)C1=C(N)OC(OC)=C(C#N)C1c1ccncc1 (stereo unspecified) | 100.3
COc1cc(CNCc2cccc(C(F)(F)F)c2)cc(OC)c1 | 100.1
O=C(CSc1nnc(-c2ccncc2)n1-c1ccccc1)Nc1ccccc1 | 99.8
Following part:
SMILES | Vaccinia pol inh
CC(CCc1ccccc1)NCc1c(C(=O)O)n(Cc2ccc(F)cc2Cl)c2ccccc12 (stereo unspecified) | 95.9
COc1ccc2c(C)c(CC(C)O)c(=O)oc2c1 (stereo unspecified) | 99.4
N#Cc1ccc(OC(=O)COc2ccc(Br)cc2)cc1 | 102.1
CC1CC(C)CN(CCCNC(=O)Cc2c(C(=O)O)[nH]c3ccccc23)C1 (stereo unspecified) | 99.0
Clc1ccccc1OCc1nnc2n1CCC2 | 95.3
Cc1ccc2nc(-c3cccc(-c4nc5ccc(C)cc5o4)n3)oc2c1 | 107.6
O=C(O)COc1ccccc1Cc1ccccc1 | 96.3
O=C(NCc1ccc2[nH]c3c(c2c1)CCCC3)c1ccc(C(F)(F)F)cc1 | 98.7
NNc1ncnc2c1oc1ccccc12 | 99.8
Cc1cc(C(=O)N2CCN(Cc3ccccc3)CC2)n[nH]1 | 101.4
Cc1ccc(C(=O)CCC(=O)Nc2cccc3ccccc23)cc1 | 102.1
CC(C)[C@H]1COC(c2cccc(C3=N[C@@H](C(C)C)CO3)n2)=N1 | 105.5
COc1cccc(C(=O)NC(=S)Nc2ccc(O)c(-c3nc4ccccc4s3)c2)c1 | 100.1
COc1ccccc1-c1nnc(NC(=O)C(C)SC2=NCCS2)s1 (stereo unspecified) | 98.2
CCCOc1cccc(C(=O)Nc2ccc(C(=O)OC)cc2)c1 | 100.0
COC(=O)C1=C(C(=O)c2ccccc2)C(c2ccc(C(=O)OC)cc2)n2nnnc2N1 (stereo unspecified) | 100.5
O=C(N1N=CCC1c1ccccc1)C12CC3CC(CC(C3)C1)C2 (stereo unspecified) | 100.4
O=C(Nc1nnc(SCC(=O)N2CCCc3ccccc32)s1)c1c(F)cccc1Cl | 101.6
COc1ccc(C2OC(=O)Cc3cc(OC)c(OC)cc32)cc1 (stereo unspecified) | 99.5
CC(C)C(=O)Nc1nc(-c2cc3ccccc3oc2=O)cs1 | 100.5
O=C(O)c1ccccc1-c1nnc2c(Cl)cc(C(F)(F)F)cn12 | 109.9
COc1ccc2oc(=O)c(C(=O)N3CCCCC3)cc2c1 | 103.0
O=C(CSc1nc2ccccc2[nH]1)NCCC1=CCCCC1 | 98.4
O=C(COc1ccc(Cl)cc1Cl)N(c1ccccn1)C1CCCCC1 | 93.6
O=C(CN1C(=O)COc2ccccc21)Nc1ccc(Cl)cc1 | 102.2
Remaining list, next part:
SMILES | Vaccinia pol inh
c1ccc(-c2nnc(N3CCOCC3)nc2-c2ccccc2)cc1 | 114.7
COc1cccc(-n2c(=O)c3sccc3n(Cc3ccc(F)cc3Cl)c2=O)c1 | 98.6
COc1ccc(-c2noc(CC(=O)N(C)c3ccccc3)n2)cc1 | 110.0
C=CCSc1nnc2n(-c3ccccc3)c(=O)c3c(C)c(C)sc3n12 | 99.7
COc1ccc2c(=O)c(Oc3ccccc3)c(C)oc2c1C | 99.8
CC(C)N1CCN(c2ncnc3scc(-c4ccccc4)c23)CC1 | 100.9
O=C(NCc1ccccc1)C12CC3CC(CC(C3)C1)C2 | 91.6
CC(=O)N1CC(C)Sc2cc(S(=O)(=O)N(C)c3ccc(C)cc3)ccc21 (stereo unspecified) | 101.5
C=CCN1C(=O)/C(=C\c2ccc(C(=O)O)cc2)S/C1=N\c1nnc(C)s1 | 97.3
COc1ccc(OC(=O)N2CCOCC2)cc1 | 100.2
CCOc1ccc(CCNC(=O)Cn2nc(C)n3cccc3c2=O)cc1OCC | 116.8
O=C(O)c1ccc(-n2c(-c3ccccc3)cc3c2CCCC3)cc1 | 90.0
CCOC(=O)c1[nH]c(C)c(C(=O)NC)c1C | 99.5
CCCC[n+]1c(C)sc2ccccc21 | 101.0
O=C(CS(=O)(=O)Cc1ccccc1)N1CCCc2ccccc21 | 107.8
O=S(=O)(Cc1cccc(C(F)(F)F)c1)Cc1nc(-c2ccc(C(F)(F)F)cc2)cs1 | 98.6
O=C(COc1ccccc1O)Nc1ccccc1 | 100.0
O=C(/C=C/c1cccs1)OCC(=O)N1CCCC1 | 102.9
Cc1cc2cc(CNC(=O)Cc3ccccc3)ccc2[nH]1 | 100.4
CCN(CC)c1ccc(NS(=O)(=O)c2ccc(F)cc2)cc1 | 89.9
CCOC(=S)SCc1cn2cccnc2n1 | 99.2
COC(=O)c1ccccc1NC(=S)N1CCCCC1 | 100.0
O=C(O)C1=Cc2sc3c(c2CS1)CCCC3 | 73.5
O=C(/C=C/c1cccs1)NCC(c1ccc(F)cc1)N1CCOCC1 (stereo unspecified) | 101.6
NC(=O)c1ccc(Oc2ncc(C(F)(F)F)cc2Cl)cc1 | 106.6

Some of the entries so far, in CSV form.
SMILES,Vaccinia pol inh
CC(=O)N1CC(C)Sc2cc(S(=O)(=O)N(C)c3ccc(C)cc3)ccc21 (stereo unspecified),101.5
C=CCN1C(=O)/C(=C\c2ccc(C(=O)O)cc2)S/C1=N\c1nnc(C)s1,97.3
COc1ccc(OC(=O)N2CCOCC2)cc1,100.2
CCOc1ccc(CCNC(=O)Cn2nc(C)n3cccc3c2=O)cc1OCC,116.8
O=C(O)c1ccc(-n2c(-c3ccccc3)cc3c2CCCC3)cc1,90.0

Next entries:
SMILES | Vaccinia pol inh
CCCCN(C)S(=O)(=O)c1ccc(C(=O)Nc2sccc2C#N)cc1 | 108.1
O=c1[nH]c2ncccc2c(=O)n1Cc1ccccc1 | 88.6
C=CCN1C(=O)C(=Nc2ccc(C)c(Cl)c2)c2ccccc21 | 83.6
Cc1ccc(-c2cnnn2-c2ccc(C(=O)COC(=O)c3ccccc3F)cc2)cc1 | 101.0
COc1cccc(-c2nn(C)c3sc(C(=O)N4CCCCC4C)cc23)c1 (stereo unspecified) | 101.2
CC(C)(C)N=Cc1c(O)n(-c2ccccc2Cl)c(=O)c2ccccc12 | 106.6
O=C(Cc1ccccc1)Nc1nc(-c2nc3ccccc3s2)cs1 | 99.2
Nc1ccc(-c2cnc(-c3ccc(N)cc3)nc2)cc1 | 99.6
O=C(O)CC(c1ccccc1)N1C(=O)c2ccccc2C1=O (stereo unspecified) | 98.7
O=C(Cn1c(=O)oc2cc(S(=O)(=O)NC3CCCC3)ccc21)NCc1cccs1 | 99.8
O=C(CCc1nc2cccnc2n1-c1ccccc1)NC1CCCC1 | 102.5
COc1nc(-c2ccccc2)nnc1C(F)(F)F | 100.0
Cc1cccc2nc(CSc3ccccc3N)cn12 | 100.0
COc1ccccc1NC(=O)[C@H](CSCc1ccccc1)N1Cc2ccccc2C1=O | 107.2
O=C(COC(=O)CC1CC2CCC1C2)NC1CC1 (stereo unspecified) | 88.9
CC(C)(C)c1ccc(C(=O)NCCN2CCOCC2)cc1 | 99.4

Entries shown so far with a cyano group:
SMILES | Vaccinia pol inh
N#CCSc1nc2ccccc2c(=O)n1CCC(=O)NC1CCCCC1 | 101.7
N#Cc1ccccc1Cn1c(=O)n(Cc2ccccc2)c(=O)c2ccccc21 | 100.7
COC(=O)C1=C(N)OC(OC)=C(C#N)C1c1ccncc1 (stereo unspecified) | 100.3
N#Cc1ccc(OC(=O)COc2ccc(Br)cc2)cc1 | 102.1
CCCCN(C)S(=O)(=O)c1ccc(C(=O)Nc2sccc2C#N)cc1 | 108.1
